Bfl-1 A1 inh: inhibitors of the anti-apoptotic protein A1, read as caspase activation | MEF A1-2A-BIM cells, Caspase-Glo 3/7 luminescence, 3 h; percent of clofoctol response, vehicle zero | caspase activation, % (no concentration beside the values) | hit rate 0.066% among 330,000;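 active = over half of replicate activation scores above 10%, or exactly half above 10 with the replicate mean above 10; inconclusive = replicate mean below 10 yet half the replicates above 10; inactive = over half of replicates below 10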;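 note: wells of about 30 µL received 50 nL stock; many hits fall short of the cut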
UCH37 inh: blocks the human deubiquitinase UCH37; Q9Y5K5; purified proteasome/UCH37, Ub-AMC cleavage fluorescence; inhibition, % (concentration not given with the values); hit rate 0.33% among 330,000; AID 588478;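 active = mean of two replicates above 20%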;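 note: 0% = compound-free wells with enzyme and 100% = wells lacking proteasome; stock transfer was 100 nL into about 20 µL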
Target sequence (Q9Y5K5 whole entry, looked up): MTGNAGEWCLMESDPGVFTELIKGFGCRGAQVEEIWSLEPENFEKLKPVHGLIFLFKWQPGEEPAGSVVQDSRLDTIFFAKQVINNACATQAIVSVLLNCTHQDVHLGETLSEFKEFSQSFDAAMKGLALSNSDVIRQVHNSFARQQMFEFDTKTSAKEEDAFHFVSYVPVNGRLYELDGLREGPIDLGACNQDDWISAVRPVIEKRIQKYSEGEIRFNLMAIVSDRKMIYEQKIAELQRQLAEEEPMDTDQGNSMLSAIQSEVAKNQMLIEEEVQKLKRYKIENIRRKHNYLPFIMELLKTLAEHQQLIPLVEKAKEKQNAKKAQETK
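assay system = human UCH37 enzyme supplied as purified proteasome complex | amount = proteasome at 0.15 nM in the dispensed enzyme solution | schedule = 30 min compound-proteasome preincubation then 25 min substrate reaction, room temperature | measured by = fluorescence, ex 355 nm, em 460 nm | benchmarks = no-proteasome wells (full inhibition) and compound-free wells (no inhibition)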
Vif TR-FRET: inhibitors of Vif binding to APOBEC3G peptide, primary screen, biochemical, TR-FRET, GST-Vif 1-94, biotin-A3G peptide, dose response retest (AID 1117319) | TR-FRET GST-Vif / biotin-A3G peptide binding; higher % means a stronger effect; test concentration not given here; strong numbers were not always called active | one-dose inhibition, %; IC50 in µM for titrated hits | hit rate 0.57% among 260,000;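 active = above the screen mean plus three standard deviations and confirmed in dose response; inconclusive = results disagree or hit not tested in dose response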;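 note: Vif residues 1-94 fused to GST binding biotinylated APOBEC3G peptide 110-148; 0% = full assay without inhibitor and 100% = GST in place of GST-Vif; retest series ran down from 100 µM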
E coli growth: E. coli growth inhibition; Escherichia coli growth, OD600, 23 h; hits give low values; OD600 absorbance (no concentration beside the values); hit rate 0.21% among 330,000; AID 1053175;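 active = OD600 absorbance below the run mean of sample wells minus 3.6 SD, in any replicate, cut at about 0.56 in these data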;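 note: stock transfer was 300 nL into about 60 µL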
Beta2AR agonist: agonists of human beta-2 adrenergic receptor inducing internalization | Am2.2-beta2AR cells, FAP receptor internalization, flow cytometry; reference of the scale not given here | hit rate 0.43% among 340,000 | response, % (no concentration beside the values) | AID 504454;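 active = response above a set limit, near 3 SD of response in nonfluorescent compounds, cut at about 42% in these data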;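 note: stock transfer was 100 nL into about 11 µL; a reference agonist was the positive control; negative values mostly stem from fluorescent compounds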
HNF4A DNA FP: change in binding of human HNF4 alpha to DNA; HNF4a-FITC DNA binding, fluorescence polarization, 1 h; activity change, % at 10 µM; AID 1224865; hit rate 0.3% among 360,000; P41235; in the data active = activity change above about 30%, passing the limit was not always enough;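 note: controls were the assay level and a saturating level of protein; the project sought stronger binding though the title names inhibitors; some compounds called inactive have numbers as strong as hits; positive values seem to mean higher polarization but the record does not say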
Target sequence (P41235 whole entry, looked up): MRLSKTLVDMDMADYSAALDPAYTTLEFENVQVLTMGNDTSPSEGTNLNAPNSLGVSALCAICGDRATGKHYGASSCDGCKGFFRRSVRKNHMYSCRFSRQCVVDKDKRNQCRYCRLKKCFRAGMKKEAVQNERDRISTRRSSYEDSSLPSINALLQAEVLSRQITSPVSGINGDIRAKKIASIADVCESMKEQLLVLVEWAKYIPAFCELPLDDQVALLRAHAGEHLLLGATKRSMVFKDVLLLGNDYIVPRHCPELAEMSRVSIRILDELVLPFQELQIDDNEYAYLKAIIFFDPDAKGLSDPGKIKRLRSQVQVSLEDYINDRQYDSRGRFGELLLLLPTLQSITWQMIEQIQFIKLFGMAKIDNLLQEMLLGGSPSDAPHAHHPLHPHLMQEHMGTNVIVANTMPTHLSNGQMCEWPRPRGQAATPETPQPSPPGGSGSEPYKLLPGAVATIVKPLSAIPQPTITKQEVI
LANA-H2A inh: blocks KSHV LANA binding to histone H2A/H2B; inhibition, % (concentration not given with the values); hit rate 0.6% among 320,000; Q9QR71; cell-free LANA-H2A/H2B peptide, fluorescence polarization; AID 2629; in the data active = inhibition mostly above about 10%, no sharp cut-off; inactive = mostly below about 6.7%;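 note: stock transfer was 7.5 nL into about 10 µL; 0% = median of vehicle wells and 100% = median of positive control wells; one replicate is shown; the record names a cut of 25% in any replicate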
An asterisk follows results filed as active; i = inactive; ? = inconclusive; nt = not tested or not shown; & = joins results of further samples.

smiles | E coli growth | LANA-H2A inh | Vif TR-FRET | Bfl-1 A1 inh | HNF4A DNA FP | UCH37 inh | Beta2AR agonist
C#CCOCCOCCOCCNc1nc(N2CCN(C(=O)[C@H](Cc3cc4ccccc4[nH]3)n3cc([C@@H](N)C(C)CC)nn3)CC2)nc(N2CCN(C(=O)[C@H](Cc3cc4ccccc4[nH]3)n3cc([C@@H](N)Cc4ccc(O)cc4)nn3)CC2)n1 (stereo partly specified) | nt | -1.6 | -12.4% | -0.5 | nt | nt | nt
Cc1ccccc1NC(=O)Cn1nnc2sc3c(c2c1=O)CC(C)(C)OC3 | 0.701 | -1.1 | 8.5% | 0.7 | 3.0 | 6.5 | -10.2
COc1ccccc1NC(=O)CCC(=O)OCC(=O)c1ccc(C)c([N+](=O)[O-])c1 | 0.683 | 1.0 | nt | 0.6 | 3.1 | 3.2 | -4.4
CCc1cc(=O)oc2cc3oc(C)c(C)c3cc12 | 0.686 | -0.9 | 1.2% | 1.9 | -3.7 | -13.6 | -6.3
CCCCn1c(-c2ccc(OC(F)F)cc2)nc2c1c(=O)[nH]c(=O)n2CC(C)C | 0.689 | 1.8 | -1.2% | 0.6 | -3.4 | -8.6 | -4.4
CCC(=O)N(CCc1ccccc1)Cc1cc2ccc(OC)cc2[nH]c1=O | 0.686 | 4.2 | -7.0% | 0.2 | 2.8 | -1.3 | -0.5
CCn1nnnc1SCC(=O)Nc1cccc(NC(C)=O)c1 | 0.636 | 4.0 | 8.1% | 1.0 | -2.3 | -0.2 | -4.5
COCCNCc1ccc(C(C)C)cc1 | 0.631 | -5.5 | -1.9% | 1.2 | 2.5 | 0.5 | 4.8
Cn1c(=O)c2[nH]c(-c3ccc(S(=O)(=O)O)cc3)nc2n(C)c1=O | 0.664 | 5.1 | nt | 0.7 | 0.3 | i | -9.4
S=c1[nH]nc(C2CCCCC2)n1/N=C/c1ccc(Cl)cc1 | nt | -1.6 | 0.2% | -5.9 | 2.2 | nt | -3.7
Cn1ncc(S(=O)(=O)Cc2ccccc2)c(Cl)c1=O | nt | -3.3 | 16.7% | -0.1 | -5.3 | nt | -13.2
CC1(OC(=O)c2cccs2)C(=O)C=C2C=C(C3CC3)OC=C2C1=O (stereo unspecified) | 0.662 | 0.1 | nt | 1.6 | 5.5 | 4.9 | 3.3
CC1CCCN(C(=O)CSc2nnc(-c3ccc(S(=O)(=O)N4CCOCC4)cc3)n2C)C1 (stereo unspecified) | 0.703 | 1.3 | 4.2%&20.9% | -0.2 | 0.5 | 3.4 | -1.7
Cc1cc(C)c2c(N)c(C(=O)NC3CC3)sc2n1 | 0.679 | 2.0 | 7.2% | 0.2 | -1.1 | -35.4 | -6.9
CCC1(CC)NC(=O)N(CC(=O)OCC(=O)Nc2ccc(F)c(F)c2F)C1=O | 0.715 | -1.6 | -3.6% | 0.1 | 0.9 | 4.8 | 0.9
CCn1c(=O)c(CCC(=O)NCC2CCCO2)c(C)c2c(C)nn(-c3ccc(C)cc3)c21 (stereo unspecified) | nt | 4.8 | nt | -1.0 | 2.6 | nt | 9.7
C=CCNC(=S)N/N=C(\C)c1ccccn1 | nt | 6.3 | 0.9% | -1.2 | -3.4 | nt | 13.8
CC1=NN(C(N)=S)C(=O)C1N=Nc1ccc(Br)cc1 (stereo unspecified) | 0.655 | 5.3 | nt | -6.8 | -4.7 | 7.1 | -0.9
O=C(N/N=C/C(Br)=C\c1ccccc1)c1cccs1 | nt | 0.4 | 7.1% | -3.0 | -0.9 | nt | 2.4
CCN(CC)P(=O)(Nc1ccc([N+](=O)[O-])cc1)c1c(C)nn(CCC#N)c1NC(=O)c1ccc(Cl)cc1Cl (stereo unspecified) | 0.709 | -2.6 | -15.1% | 0.6 | -0.9 | 11.3 | 3.5
O=C(NCCCN1CCCC1=O)C1CCC(CNS(=O)(=O)c2ccc(Cl)cc2)CC1 (stereo unspecified) | 0.64 | 4.5 | -1.0% | 0.1 | 0.8 | 0.0 | -1.4
COc1ccc(/C=N/NC(=O)c2cccnc2)cc1COc1ccc([N+](=O)[O-])c(C)c1 | nt | 5.1 | 0.8% | 0.3 | 4.2 | nt | 29.7
COc1ccc(CCC(=O)NNC(=O)c2cc(Cl)ccc2OC)cc1OC | 0.666 | 0.2 | nt | 1.3 | -3.3 | 3.8 | -11.5
Cc1[nH]c2ccc(F)cc2c1CCN(Cc1ccncc1)C(=S)Nc1ccccc1 | 0.673 | -2.3 | -10.7% | 0.0 | -4.9 | 4.5 | 3.4
N#Cc1c(N)n(-c2ccc(C(=O)O)cc2)c2nc3ccccc3nc12 | nt | 0.3 | -1.7% | -0.3 | 11.7 | nt | 2.7
COc1ccc(-c2nnc(Sc3nc4ccccc4o3)c3ccccc23)cc1 | 0.66 | -0.5 | 8.9% | 0.5 | -3.0 | 2.9 | 11.5
COCCCNCCCOc1ccc(Cl)cc1Br | 0.646 | -2.8 | 2.7% | 0.6 | -13.3 | 5.9 | 1.4
O=C(CCN1C(=O)NC2(CCCC2)C1=O)Nc1cccc(S(=O)(=O)N2CCOCC2)c1 | 0.706 | -0.5 | -7.4% | 0.1 | -1.8 | -2.0 | -10.8
CC(C)(O)/C=C/C[C@](C)(O)C1CC[C@]2(C)C1[C@H](O[C@H]1O[C@@H](CO)[C@H](O)[C@@H](O)[C@@H]1O)CC1[C@@]3(C)CC[C@H](O)C(C)(C)C3[C@@H](O)C[C@]12C (stereo partly specified) | nt | -0.5 | nt | 0.2 | 2.5 | -1.0 | -14.8
Cc1ccccc1OCC(=O)OCC(=O)Nc1ccc2c(c1)OCCO2 | 0.707 | nt | 5.8% | nt | 1.6 | 2.0 | -4.2
O=C(CN1CCN(c2ncccn2)CC1)Nc1ccccc1-n1cccc1 | 0.643 | -0.6 | 7.3% | 0.1 | -0.9 | 1.0 | 5.0
C=CCn1c(SCC(=O)Nc2ccc(F)cc2F)nc2c([nH]c3ccccc32)c1=O | 0.72 | 0.4 | 2.6% | 0.0 | 0.0 | -1.4 | -2.3
CCCCC(=O)NC(=S)Nc1cccc(NC(=O)c2ccco2)c1 | 0.71 | 3.5 | nt | 0.2 | -1.9 | 2.1 | -21.4
Cc1noc(C)c1C(=O)OCC(=O)NCCc1ccccc1 | 0.683 | 2.0 | -7.9% | -0.5 | 2.1 | 1.3 | 1.9
COc1ccc(C(=S)N2CCOCC2)cc1OS(=O)(=O)c1ccccc1[N+](=O)[O-] | 0.693 | -1.9 | 10.1% | -0.1 | -0.9 | 4.0 | -2.4
CC1=C(C(=O)Nc2ccc(Cl)cc2)C2(CCCCC2)C(C(N)=O)C(=S)N1 (stereo unspecified) | 0.693 | -5.0 | nt | 0.5 | nt | 6.5 | nt
CCOC(=O)c1ccccc1NC(=O)C(C)Oc1ccccc1 (stereo unspecified) | 0.687 | 0.3 | ? | 0.1 | -3.4 | -1.5 | 0.5
COc1ccc(OCC(O)CN2CCN(CC(O)COc3ccc(OC)cc3)CC2)cc1 (stereo unspecified) | 0.696 | -1.8 | nt | -0.4 | -0.9 | 1.4 | 1.5
COc1cccc(C2/C(=C(\O)c3ccc4c(c3)OCCO4)C(=O)C(=O)N2CC2CCCO2)c1 (stereo unspecified) | 0.741 | -2.3 | nt | 0.6 | 11.7 | 12.8 | 16.4
CS(=O)(=O)NCc1nnc(SCc2c(F)cccc2Cl)o1 | 0.744 | 1.3 | -5.5% | 1.1 | -2.4 | 2.5 | -6.4
O=c1cc(CSc2nc(NCc3ccccc3)c3ccccc3n2)nc2ccc(Cl)cn12 | 0.726 | 4.9 | nt | 1.0 | 1.7 | -28.7 | -5.8
O=C(COc1ccccc1)Nc1ccccc1N1CCN(c2ccc(F)cc2)CC1 | 0.646 | 1.3 | -4.8% | -0.2 | 2.5 | 0.7 | 4.8
CSc1cnc2c(=O)n(C)c(=O)[nH]c2n1 | 0.724 | 1.1 | -0.3% | -1.2 | -3.2 | -317.5 | 1.5
O=C(Nc1ccccc1C(=O)NCC1CCCO1)c1ccccc1 (stereo unspecified) | 0.652 | -0.7 | 68.9% | -0.2 | 2.0 | 2.0 | -0.8
Cc1ccc(NC(=O)CN2C(=O)NC3(CCc4ccccc43)C2=O)cc1S(=O)(=O)N1CCCCC1 (stereo unspecified) | 0.644 | -0.5 | -7.9% | 0.0 | 2.1 | 0.7 | 4.0
Cc1cc(C)c2[nH]c(=O)c(CN(Cc3nnnn3C3CCCC3)C3CCCCC3)cc2c1 | 0.674 | nt | -1.9%&0.6% | nt | 1.2 | 4.4 | -0.3
CC(CS(=O)(=O)c1ccc2c(c1)NC(=O)CS2)C(=O)N1CCN(c2cccc(Cl)c2)CC1 (stereo unspecified) | 0.594 | 8.9 | nt | -0.8 | 4.8 | 1.0 | 0.6
Cc1ccc2[nH]cc(S(=O)(=O)c3ccc(C(C)C)cc3)c(=O)c2c1 | 0.698 | 0.5 | -10.1% | 1.3 | 0.1 | 2.1 | -1.4
CCOCC(=O)N1CCN(c2ccccc2OC)CC1 | 0.654 | 3.7 | 9.9% | 0.3 | 4.5 | 0.6 | -6.7
O=C(COC(=O)c1cccc(Br)c1)NCCNC(=O)COC(=O)c1cccc(Br)c1 | 0.743 | 0.0 | nt | -0.5 | 1.2 | -0.3 | -5.1
CCn1c(COc2ccccc2C)nnc1SCC(=O)N1CCC(C)CC1 | 0.668 | 2.6 | 2.2% | 0.1 | 2.3 | 1.8 | -5.4
Oc1ccc(-c2nc3ccccn3c2NCc2ccc3c(c2)OCO3)cc1 | 0.79 | -2.1 | 2.2% | -2.0 | 1.3 | -198.1 | 6.1
CN1CCN(C(=O)c2ccc3c(=O)n(CCc4ccccc4)c(=S)[nH]c3c2)CC1 | 0.759 | 0.4 | nt | 0.4 | -4.0 | 2.3 | -6.5
C[C@H](CO)NC(=O)[C@@H]1C[C@H]1[C@@H](NP(=O)(c1ccccc1)c1ccccc1)c1ccccc1 | nt | 2.9 | 6.7% | -0.1 | 3.5 | -3.0 | -0.3
Cc1noc(C)c1C(=O)NCc1cccs1 | 0.669 | -5.6 | -2.4% | 0.8 | 2.0 | -1.2 | -0.8
Cc1cc(NS(=O)(=O)c2ccc(NC(=O)Cc3ccc(Cl)c(Cl)c3)cc2)no1 | 0.708 | nt | -2.8% | nt | -1.5 | 1.3 | 4.0
Cc1ccc(Nc2c3c(nc4ncnn24)CCC3)cc1 | 0.732 | -6.6 | -2.3% | 0.0 | -0.6 | 3.5 | 3.7
COc1cc2cc(CN(Cc3cccs3)C(=S)Nc3ccc(C)cc3)c(=O)[nH]c2cc1OC | 0.717 | 8.0 | 1.8% | -0.2 | 3.7 | -7.1 | 10.9
CC(=O)N1CCN(c2ccc(NC(=O)c3cccc(OCc4ccccc4)c3)cc2)CC1 | 0.745 | -16.1 | 2.7% | -0.6 | 4.3 | -7.7 | -13.7
O=C(Nc1ccc(S(=O)(=O)Nc2ncccn2)cc1)C1COc2ccccc2O1 (stereo unspecified) | 0.637 | -1.0 | 1.5% | 0.6 | -0.6 | 3.5 | 0.3
Cc1ccc2[nH]c3nc(SCCN4CCOCC4)nnc3c2c1 | 0.646 | 4.6 | 2.6% | -0.7 | -5.6 | 2.6 | -0.4
CC1CCCC(C)N1C(=O)COC(=O)CSc1ccc([N+](=O)[O-])cc1 (stereo unspecified) | 0.667 | nt | 4.2% | nt | 3.5 | 4.2 | 9.9

Rows are unselected. Share with any hit: about 2.1%.
